# Assay outcomes (PubChem)
# rRNA inh HTS – reduced GFP signal of wild-type E. coli, primary screen, bacterial rRNA inhibitor project, GFP/RFP fluorescence, OD600, single point | E. coli WT GFP vs humanized-ribosome RFP mutants, 24 h; active compounds read low; DMSO median 0, no signal -100 | 350,000 compounds, 1.6% hits | AID 720706, 2013 | GFP signal change (wild-type ribosome), % (concentration not given with the values);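 active = significant combined selectivity score with lowered wild-type GFP, culture density cut under 30%, mutant RFP and density less affected; inactive = any of these conditions unmet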; also: one replicate is shown; some compounds called inactive have numbers as strong as hits
# rRNA inh HTS OD600 – further read-out of rRNA inh HTS, marked with its call; OD600 change, %; measured here: OD600 growth;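 optical density of the mix in the first replicate; 0 = DMSO median and -100 = no signal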
# rRNA inh HTS RFP – further read-out of rRNA inh HTS, marked with its call; RFP signal change, %; measured here: RFP humanized mutant strains;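 first replicate; 0 = DMSO median and -100 = no signal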
# Starred values were filed as active, the others as inactive.
SMILES,rRNA inh HTS,rRNA inh HTS OD600,rRNA inh HTS RFP
C[C@H]1CN([C@@H](C)CO)S(=O)(=O)c2ccc(C#Cc3ccc(F)cc3)cc2O[C@@H]1CN(C)S(C)(=O)=O,-2.6,-35.7,27.4
CCC(=O)N1CC2(C1)CN(Cc1cccc(Cl)c1)[C@@H](CO)c1c2c2ccc(OC)cc2n1C,-6.9,-12.1,2.9
Cc1ccc2c(CN3CCN(c4ccc(Cl)c(Cl)c4)CC3)cc(=O)oc2c1,8.0,14.2,-4.3
CCN1[C@@H]2Cn3c(ccc(C4=CCCC4)c3=O)[C@H]1[C@@H](C(=O)N[C@@H](C)c1ccccc1)[C@@H]2CO,-0.6,-2.3,-0.4
Nc1cc2ccccc2cc1NS(=O)(=O)N1CCCCC1,-4.2,-4.1,1.6
O=C(C[C@H]1C=C[C@@H](NC(=O)c2ccncc2)[C@@H](CO)O1)NCCc1ccncc1,3.1,-0.1,2.2
CCOC(=O)C1(C)CCN1C(=O)c1cccc(C#N)c1 (stereo unspecified),15.2,9.4,3.8
CC(C)C(=O)Nc1ccc2c(c1)C(=O)N(C)[C@@H]1CC[C@H](CC(=O)NCc3ccc(F)cc3)O[C@H]1CO2,1.0,2.1,-1.2
COC(=O)C[C@@H]1CC[C@H]2[C@@H](COc3ccc(NC(=O)c4ccccc4)cc3C(=O)N2C)O1,2.0,-1.8,-1.7
C[C@@H]1CN([C@H](C)CO)S(=O)(=O)c2ccc(C3=CCCC3)cc2O[C@H]1CN(C)C(=O)c1cnccn1,0.4,-1.6,-3.0
OC[C@@H]1Nc2ccc(-c3ccccc3)cc2[C@H]2[C@@H]1CCN2Cc1ccccc1F,-55.1,-73.4,-7.7
CC(C)C(=O)Nc1ccc2c(c1)C(=O)N(C)[C@H]1CC[C@H](CC(=O)N[C@@H](C)c3ccccc3)O[C@H]1CO2,2.1,2.3,0.8
C[C@@H]1CN([C@H](C)CO)C(=O)c2cc(C3=CCCC3)cnc2O[C@H]1CN(C)C(=O)c1ccccc1,1.2,5.3,-3.1
CO[C@@H](CN(C)C(=O)c1ccccc1F)[C@@H](C)CN([C@H](C)CO)S(=O)(=O)c1ccc(C)cc1,-3.1,-10.3,0.5
Cc1cccc(-c2ccc([C@H]3[C@@H](CO)N4CCCCN(S(=O)(=O)c5cccc(C)c5)C[C@@H]34)cc2)c1,3.8,6.5,23.8
O=C(NNC(=O)c1cc(S(=O)(=O)N2CCOCC2)ccc1Cl)c1ccc(F)cc1,8.7,7.2,3.0
O=C(NCc1cccc(F)c1)[C@H]1[C@H](CO)[C@H]2Cn3c(ccc(-c4ccncc4)c3=O)[C@@H]1N2CC1CC1,2.3,6.3,-0.8
C[C@H](CO)N1C[C@H](C)[C@H](CN(C)Cc2ccc3c(c2)OCCN3C)OCc2ccccc2-c2c(n(C)c3ccccc23)C1=O,-17.7,-32.3,34.1
C[C@H](CO)N1C[C@H](C)[C@H](CN(C)C(=O)Nc2ccc3c(c2)OCO3)Oc2ccc(NC(=O)Cn3cnnn3)cc2CC1=O,-0.2,4.4,-1.1
COc1ccc(Cc2c(C3CCCCC3)nc3ccc(Cl)cn23)c(C)c1,10.8,12.3,0.5

# 5 entries drawn at random from those above, as already listed:
SMILES,rRNA inh HTS,rRNA inh HTS OD600,rRNA inh HTS RFP
O=C(NNC(=O)c1cc(S(=O)(=O)N2CCOCC2)ccc1Cl)c1ccc(F)cc1,8.7,7.2,3.0
Cc1cccc(-c2ccc([C@H]3[C@@H](CO)N4CCCCN(S(=O)(=O)c5cccc(C)c5)C[C@@H]34)cc2)c1,3.8,6.5,23.8
C[C@H]1CN([C@@H](C)CO)S(=O)(=O)c2ccc(C#Cc3ccc(F)cc3)cc2O[C@@H]1CN(C)S(C)(=O)=O,-2.6,-35.7,27.4
COc1ccc(Cc2c(C3CCCCC3)nc3ccc(Cl)cn23)c(C)c1,10.8,12.3,0.5
CO[C@@H](CN(C)C(=O)c1ccccc1F)[C@@H](C)CN([C@H](C)CO)S(=O)(=O)c1ccc(C)cc1,-3.1,-10.3,0.5

# (further entries)
SMILES,rRNA inh HTS,rRNA inh HTS OD600,rRNA inh HTS RFP
Cc1noc(C)c1NC(=O)N(C)C[C@H]1Oc2ccc(NS(=O)(=O)c3ccccc3)cc2CC(=O)N([C@@H](C)CO)C[C@H]1C,4.1,-0.2,-1.1
O=C(Cc1ccccc1)N1C[C@H]2[C@@H](c3ccccc31)[C@H](CO)N2C(=O)c1ccc(F)cc1,0.1,1.7,0.7
CC(C)CCC(=O)Nc1cc(S(=O)(=O)N2CCOCC2)ccc1N1CCCC1,5.6,4.4,4.4
CC(=O)c1ccc(OC2(C)CCN(Cc3ccccc3OC(F)F)C2)cc1 (stereo unspecified),-3.5,-4.2,-0.5
C[C@H](CO)N1C[C@H](C)[C@H](CN(C)C(=O)C2CCCCC2)OCCCC[C@H](C)Oc2ccc(NC(=O)Nc3ccc(F)cc3)cc2C1=O,-1.2,-0.6,-2.2
CCCN(C)C[C@@H]1Oc2ncc(C#Cc3cccc(OC)c3)cc2C(=O)N([C@H](C)CO)C[C@@H]1C,0.5,1.2,2.6
Cc1noc(C)c1NC(=O)Nc1ccc2c(c1)C(=O)N([C@H](C)CO)C[C@H](C)[C@@H](CN(C)Cc1ccc(C(F)(F)F)cc1)OCCCC[C@H](C)O2,-2.6,-10.3,0.0
C[C@@H]1CN([C@@H](C)CO)C(=O)CCCn2nncc2CO[C@H]1CN(C)Cc1ccc(C(=O)Nc2ccccc2N)cc1,3.0,5.5,1.5
O=C(C[C@@H]1CC[C@H]2[C@@H](COC[C@H](O)CN2C(=O)c2cnccn2)O1)NCc1ccc(Oc2ccccc2)cc1,-3.4,-14.7,-5.2
COc1ccccc1C#Cc1cnc2c(c1)C(=O)N([C@@H](C)CO)C[C@H](C)[C@H](CN(C)C(=O)c1ccc3c(c1)OCO3)O2,-4.8,-2.7,-0.7
C[C@H]1CN([C@@H](C)CO)C(=O)Cc2cc(NC(=O)CCN3CCOCC3)ccc2O[C@@H]1CN(C)C(=O)Nc1ccc(C(F)(F)F)cc1,-0.3,-2.1,-1.6
C[C@@H]1CCCCO[C@H](CN(C)C(=O)NC2CCCCC2)[C@@H](C)CN([C@@H](C)CO)C(=O)c2cc(NS(C)(=O)=O)ccc2O1,-0.1,-3.0,1.3
C[C@H]1CN([C@@H](C)CO)S(=O)(=O)c2ccc(C#CC3CCCC3)cc2O[C@H]1CN(C)C(=O)Cc1ccccc1,5.6,1.6,4.4
CCCC#Cc1ccc2c(c1)O[C@H](CN(C)CCC)[C@H](C)CN([C@H](C)CO)S2(=O)=O,5.3,6.8,1.3
C[C@@H]1CN([C@H](C)CO)C(=O)c2cc(NS(=O)(=O)c3cccs3)ccc2O[C@@H](C)CCCCO[C@H]1CN(C)Cc1ccc(Cl)c(Cl)c1,-15.6,-41.6,20.5
CCN1C[C@@H]2[C@@H]3C(=O)N(Cc4ccccc4)C(=O)[C@@H]3[C@](CC)(C1=O)N2C(=O)c1ccc(Cl)cc1,-2.2,-3.1,-5.7
C[C@H](CO)N1C[C@H](C)[C@H](CN(C)Cc2ccncc2)OCCCC[C@H](C)Oc2ccc(NC(=O)Nc3ccccc3)cc2C1=O,-5.3,-11.5,-0.2
CCCN1[C@@H]2c3ccc(-c4cccc(C(=O)N(C)C)c4)c(=O)n3C[C@@H]2[C@@H](CO)[C@@H]1C(=O)OC,2.7,5.6,-0.4
C[C@@H]1CN([C@@H](C)CO)C(=O)c2cccc(NC(=O)C3CCOCC3)c2O[C@@H]1CN(C)Cc1ccccc1,1.1,8.7,-0.2
COC(=O)[C@H]1C[C@H](OC(=O)NC2CC2)[C@@]2(O)CN(S(=O)(=O)c3ccc(C)cc3)CC2[C@H]1C(=O)OC (stereo partly specified),4.0,9.6,2.3
C[C@H](O)C#Cc1cnc2c(c1)C(=O)N([C@@H](C)CO)C[C@H](C)[C@H](CN(C)C(=O)Nc1ccc(F)cc1)O2,3.8,7.4,-0.3
COc1cccc(S(=O)(=O)N[C@@H]2C=C[C@@H](CC(=O)NCc3ccc(Cl)cc3)O[C@@H]2CO)c1,-1.9,-3.5,0.7
Cc1ccccc1C(=O)N[C@@H](CC(C)C)C(=O)N1CCC[C@H]1C(=O)NCc1ccccc1,6.4,14.6,4.0
COCC#Cc1ccc2c(c1)O[C@H](CN(C)C(=O)C1CC1)[C@H](C)CN([C@H](C)CO)S2(=O)=O,4.3,3.8,1.9
Cc1noc(C)c1NC(=O)N(C)C[C@@H]1Oc2ccc(NC(=O)Nc3cccc4ccccc34)cc2C(=O)N([C@@H](C)CO)C[C@H]1C,-1.9,-0.3,1.2
CO[C@H]1CN(C)C(=O)c2cc(NC(=O)CC(F)(F)F)ccc2OC[C@H](C)N(C(=O)C2CCOCC2)C[C@@H]1C,0.4,-0.5,2.6
CC(C)(C)[S@](=O)N1Cc2cc(C(=O)O)nc(-c3cccc(-c4ccc(F)cc4)c3)c2[C@@H]1CCO,-1.3,-6.6,2.3
CN(C)C(=O)[C@@H]1[C@@H](CO)[C@@H]2Cn3c(ccc(-c4cccc(F)c4)c3=O)[C@@H]2N1C(=O)c1ccccn1,1.1,4.9,1.0
COCCNC(=O)C[C@H]1C[C@H]2c3cc(NS(=O)(=O)c4ccc(F)cc4)ccc3O[C@H]2[C@H](CO)O1,2.5,-7.4,-6.7
CC(C)NC(=O)N(C)C[C@@H]1Oc2c(NC(=O)Nc3cccc4ccccc34)cccc2C(=O)N([C@@H](C)CO)C[C@H]1C,-3.8,-3.8,-2.6
CNC(=O)C[C@@H]1CC[C@H]2[C@@H](COc3ccc(NC(=O)Nc4ccccc4F)cc3C(=O)N2C)O1,-1.8,-1.1,2.6
Cc1ccc(Cl)cc1-c1cc(C(=O)N2CCc3ccccc3C2)[nH]n1,-18.0,-57.4,-8.1
CCC(=O)N(C)C[C@@H]1Oc2ncc(/C=C/c3ccccc3)cc2C(=O)N([C@@H](C)CO)C[C@@H]1C,2.6,16.6,0.3
CC(=O)Nc1ccc(-c2ccnc3c2CC(C)(C(=O)NCCN(C)C)O3)cc1 (stereo unspecified),15.7,32.0,1.2
COc1ccc(-c2nc(S(=O)(=O)c3ccccc3)c(N3CCN(C)CC3)o2)cc1,0.8,6.8,-2.4
COc1ccc(NC(=O)N(C)C[C@H]2Oc3ncc(C#CCC(C)C)cc3C(=O)N([C@@H](C)CO)C[C@H]2C)cc1,-5.1,-5.8,4.5
C[C@@H]1CN([C@@H](C)CO)C(=O)Cc2cc(NC(=O)C3CC3)ccc2O[C@H]1CN(C)C(=O)NC1CCCCC1,3.1,3.7,-2.5
CC(=O)Nc1cccc(-c2ccnc3c2CC(C)(C(=O)Nc2ccc4c(c2)OCO4)O3)c1 (stereo unspecified),-22.1,-9.5,10.5
Cc1ccc2nc(-c3cccc(Br)c3)c(CC3CCCCC3)n2c1,-9.7,-6.2,-0.6
C#CCC1c2ccccc2CCN1CC=C (stereo unspecified),16.9,13.5,9.0
C[C@H](NC(=O)C[C@@H]1C[C@@H]2c3cc(NC(=O)NC4CCCCC4)ccc3O[C@@H]2[C@@H](CO)O1)c1ccccc1,-2.6,2.6,-3.1
C[C@@H]1CN([C@@H](C)CO)C(=O)c2cc(-c3ccc(C#N)cc3)cnc2O[C@H]1CN(C)C(=O)CC1CC1,0.5,2.6,-3.8
COc1ccc2c3c(n(C)c2c1)[C@H](CO)N(C(=O)Nc1ccc(F)cc1)CC31CN(C(=O)c2ccc3c(c2)OCO3)C1,2.7,-1.9,2.1
Cc1cnc2nc(-c3ccccc3)ccc2c1,-3.4,-2.6,-1.1
C[C@H](CO)N1C[C@H](C)[C@H](CN(C)Cc2ccc(C(F)(F)F)cc2)Oc2ccc(NS(=O)(=O)c3ccccc3)cc2C1=O,-11.5,-32.5,25.1
C[C@@H]1CN([C@H](C)CO)C(=O)c2c(c3ccccc3n2C)-c2ccccc2CO[C@H]1CN(C)S(=O)(=O)c1cccs1,-2.7,3.2,0.7
COC(=O)C1=C(C)N(Cc2cccc(C(F)(F)F)c2)C(=NCc2cc(OC)c(OC)c(OC)c2)NC1c1ccccc1 (stereo unspecified),-57.3,-80.8,-16.1
CCN(C[C@H]1[C@H](c2ccccc2)[C@@H](CO)N1C(C)=O)C(=O)NC(C)C,1.1,0.5,0.4
Cc1cccc(Cc2cccc(C)c2O)c1O,-31.1,-59.0,-13.6
C[C@@H]1CN([C@H](C)CO)C(=O)c2cccc(NS(=O)(=O)c3ccc(Cl)cc3)c2O[C@@H]1CN(C)C(=O)Nc1ccc(F)cc1,-2.0,-19.3,-2.7
C[C@H]1CN([C@@H](C)CO)C(=O)c2cc(-c3cccc(F)c3)cnc2O[C@H]1CN(C)C(=O)c1ccccn1,3.4,8.4,-1.7
O=C1Nc2ccccc2N=C(c2ccccc2)C1N(Cc1ccc(F)cc1)C(=O)c1cccnc1 (stereo unspecified),4.3,-14.1,-2.9
Cc1noc(C)c1S(=O)(=O)Nc1ccc2c(c1)C(=O)N([C@H](C)CO)C[C@@H](C)[C@H](CN(C)C)OCCCC[C@@H](C)O2,2.8,5.0,1.1
CN(C)C(=O)c1cccc(-c2ccc3c(c2)[C@H]2[C@H](CCN2C(=O)c2ccc(F)cc2)[C@@H](CO)N3C)c1,-2.1,-0.6,2.6
O=C(C[C@@H]1C=C[C@@H](NC(=O)C2CCOCC2)[C@H](CO)O1)Nc1nccs1,-0.3,0.4,-1.8
O=C(c1ccccc1)N1CC2(C1)[C@@H](c1ccccc1)[C@H](CO)N2CC1CC1,-2.0,-4.7,1.3
CC(C)CC#Cc1cnc2c(c1)C(=O)N([C@H](C)CO)C[C@@H](C)[C@H](CN(C)C(=O)c1ccccc1F)O2,-4.3,-2.1,1.1

# Some of the compounds tested; rates above refer to the full screens.
